Vaccinia stage: blocks a specific stage of Vaccinia orthopoxvirus infection; actives 0.01% (n = 89,000); AID 1053133; activity change (mCherry), % (test concentration not listed); Vaccinia-infected cells, mCherry/Venus stage reporter fluorescence; active compounds read low; some inactives read as strong as hits;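 active means mCherry past -33% and 40 or more points under the early reporter, replicates agreeing; inconclusive means past -33% without that gap or agreement; tested in A549 cells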;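 further: scaled between vehicle wells and reference inhibitor wells; 23 nL library stock went into each well; one replicate is shown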
Vaccinia stage Venus: second read-out of Vaccinia stage, no call of its own (marks repeat the call); activity change (Venus), %; measured here: Venus reporter, other viral stage;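 negative = less Venus signal; first of two replicates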
Starred values were filed as active, the others as inactive; ? = inconclusive; . = not tested or not shown.

SMILES	Vaccinia stage	Vaccinia stage Venus
C[C@@H]1CN([C@@H](C)CO)C(=O)c2cc(C#CC3CC3)cnc2O[C@@H]1CN(C)Cc1cccc(C(=O)O)c1	18.1	10.7
O=C(c1ccc(F)cc1)N1[C@@H]2CNc3ccccc3[C@@H]2[C@@H]1CO	13.2	6.8
C[C@H]1CN([C@@H](C)CO)C(=O)c2cc(Br)cnc2O[C@@H]1CN(C)Cc1cccc(F)c1	-2.4	-2.4
O=C(Nc1cc(F)ccc1F)N1CC(=O)N2[C@@H](CO)[C@@H](c3ccc(-c4cccnc4)cc3)[C@@H]2C1	-9.2	-10.6
COc1ccc(NC(=O)Nc2cccc3c2O[C@@H](CN(C)Cc2ccc4c(c2)OCO4)[C@@H](C)CN([C@H](C)CO)C3=O)cc1	-29.6	-16.7
C[C@@H]1CCCCO[C@H](CN(C)CC2CC2)[C@H](C)CN([C@H](C)CO)C(=O)c2cc(NC(=O)NC3CCCCC3)ccc2O1	-11.4	-10.5
CCC(=O)N1[C@H](C(=O)NC2CCC2)[C@@H](CO)[C@@H]2Cn3c(cccc3=O)[C@@H]21	8.8	2.4
COc1ccc(S(=O)(=O)N2CC[C@@H]3[C@H](CO)N(C)c4ccc(-c5ccc(F)cc5)cc4[C@@H]32)cc1	?	.
CCCNC(=O)N(C)C[C@H]1Oc2cc(C#Cc3cccc(F)c3)ccc2S(=O)(=O)N([C@H](C)CO)C[C@H]1C	?	.
C[C@H]1CN([C@@H](C)CO)C(=O)CCCn2nncc2CO[C@@H]1CN(C)Cc1ccc(Cl)c(Cl)c1	-21.8	-34.2
COc1ccc(NC(=O)N(C)C[C@@H]2OCc3ccccc3-c3ccccc3C(=O)N([C@@H](C)CO)C[C@H]2C)c(OC)c1	14.4	8.1
O=C(C[C@H]1CC[C@H]2[C@@H](COC[C@@H](O)CN2S(=O)(=O)c2cccc(Cl)c2)O1)Nc1ccc(-c2ccccc2)cc1	?	.
CN1C(=O)c2cc(NC(=O)Cc3ccccc3)ccc2OC[C@@H]2O[C@H](CC(=O)NCC3CC3)CC[C@H]21	5.1	1.7
Cn1cnc(CCNC(=O)[C@@H]2[C@@H](CO)[C@@H]3Cn4c(cccc4=O)[C@H]2N3C(=O)Nc2ccccc2)c1	8.9	0.0
Cc1noc(C)c1NC(=O)Nc1ccc2c(c1)C(=O)N([C@H](C)CO)C[C@H](C)[C@H](CN(C)Cc1ccc(Oc3ccccc3)cc1)O2	-12.2	-10.9
O=C(Nc1ccc(C(F)(F)F)cc1)N1C[C@@H]2N[C@H](C1)C2c1ccc(-c2cccc(F)c2)cc1 (stereo partly drawn)	?	-7.6
CCC(=O)Nc1ccc2c(c1)OC[C@H](C)N(C(=O)c1ccccn1)C[C@H](C)[C@H](OC)CN(C)C2=O	6.9	12.2
Cc1ccc(S(=O)(=O)N(C)C[C@@H]2Oc3ccc(NC(=O)Cc4ccccc4)cc3C(=O)N([C@@H](C)CO)C[C@@H]2C)cc1	-13.5	-6.3
COc1ccc(S(=O)(=O)Nc2ccc3c(c2)CC(=O)N([C@@H](C)CO)C[C@H](C)[C@@H](CN(C)C)O3)cc1	13.5	-4.7
CCS(=O)(=O)Nc1ccc2c(c1)C(=O)N(C)C[C@H](OC)[C@H](C)CN(C(C)=O)[C@H](C)CO2	13.2	8.3

Remaining list, next part.
SMILES	Vaccinia stage	Vaccinia stage Venus
CC(C)CC#Cc1ccc2c(c1)O[C@H](CN(C)Cc1cccc(F)c1)[C@H](C)CN([C@H](C)CO)S2(=O)=O	?	.
C[C@H](CO)N1C[C@H](C)[C@@H](CN(C)Cc2ccc(C(=O)Nc3ccccc3N)cc2)Oc2c(NS(=O)(=O)c3cn(C)cn3)cccc2C1=O	26.9	7.4
O=C(Nc1ccc2c(c1)OCO2)N[C@@H]1CC[C@@H](CCNC(=O)C2CC2)O[C@H]1CO	3.8	1.2
C[C@@H]1CCCCO[C@@H](CN(C)C(=O)Nc2ccc(C(F)(F)F)cc2)[C@H](C)CN([C@H](C)CO)C(=O)c2cc(NS(=O)(=O)c3cn(C)cn3)ccc2O1	-17.3	-12.5
C[C@@H]1CN([C@@H](C)CO)C(=O)CCCn2nncc2CO[C@@H]1CN(C)Cc1ccc(C(F)(F)F)cc1	-22.1	-19.8
CCC(=O)N1CCCCN2[C@H](CO)[C@H](c3ccc(C#Cc4cccnc4)cc3)[C@@H]2C1	15.4	2.9
O=C(NC1Cc2ccccc2C1)[C@@H]1[C@@H](CO)[C@@H]2Cn3c(ccc(C4=CCCCC4)c3=O)[C@H]1N2	-4.0	-5.3
O=C(NCC[C@H]1CC[C@@H](NC(=O)C2CCC2)[C@@H](CO)O1)Nc1ccc(Cl)cc1	10.0	10.9
C[C@@H]1CN([C@H](C)CO)C(=O)c2cc(N(C)C)ccc2O[C@@H](C)CCCCO[C@H]1CN(C)S(=O)(=O)c1cccs1	-7.5	-8.3
COc1ccc(S(=O)(=O)Nc2ccc3c(c2)C(=O)N([C@H](C)CO)C[C@H](C)[C@@H](CN(C)C(=O)c2ccccc2)OCCCC[C@H](C)O3)cc1	-10.1	3.9
CO[C@@H]1CN(C)C(=O)c2cc(NC(=O)NC3CCCCC3)ccc2OC[C@H](C)N(C(C)=O)C[C@@H]1C	30.2	2.9
O=C(C[C@@H]1CC[C@H]2[C@@H](COC[C@@H](O)CN2CCc2ccccc2)O1)N1CCC(Cc2ccccc2)CC1	?	.
O=C(C[C@@H]1CC[C@H]2[C@@H](COC[C@@H](O)CN2Cc2cccc(Cl)c2)O1)N1CCCCC1	?	.
COCCNC(=O)C[C@@H]1C[C@H]2c3cc(NC(=O)C4CCC4)ccc3O[C@H]2[C@H](CO)O1	4.9	6.4
CC(=O)N(C)C[C@@H]1[C@@H](c2ccccc2)[C@H](CO)N1C(=O)C1CC1	7.7	5.9
CC(=O)N(C)C[C@H]1Oc2ncc(C#CC3(O)CCCC3)cc2C(=O)N([C@H](C)CO)C[C@H]1C	3.0	1.3
O=S(=O)(c1ccc(F)cc1)N1CCCCN2[C@H](CO)[C@H](c3ccc(C#CC4CC4)cc3)[C@@H]2C1	-32.6	-32.0
C[C@H](CO)N1C[C@H](C)[C@@H](CN(C)Cc2ccc(Oc3ccccc3)cc2)Oc2c(NS(C)(=O)=O)cccc2C1=O	7.2	-1.1
C[C@@H]1CCCCO[C@@H](CN(C)Cc2ccc(C(=O)O)cc2)[C@H](C)CN([C@@H](C)CO)C(=O)c2cc(NC(=O)Nc3cccc4ccccc34)ccc2O1	43.9	26.6
CN1[C@@H]2c3ccc(-c4ccncc4)c(=O)n3C[C@H]1[C@H](CO)[C@H]2C(=O)Nc1nccs1	18.9	19.5

More entries follow:
SMILES	Vaccinia stage	Vaccinia stage Venus
CCCNC(=O)N[C@@H]1C=C[C@@H](CC(=O)N2CCN(C)CC2)O[C@H]1CO	-1.0	14.5
COc1cccc(C#Cc2ccc3c(c2)[C@H]2[C@H](CCN2S(=O)(=O)c2cccc(OC)c2)[C@H](CO)N3)c1	24.0	22.9
C[C@@H]1CCCCO[C@H](CN(C)Cc2ccccc2)[C@@H](C)CN([C@H](C)CO)C(=O)c2cc(NC(=O)CCC(F)(F)F)ccc2O1	-8.1	-4.6
Cc1noc(C)c1NC(=O)N[C@H]1CC[C@H](CCNC(=O)C2CCC2)O[C@@H]1CO	-1.8	0.7
COc1ccc(S(=O)(=O)Nc2ccc3c(c2)[C@@H]2C[C@@H](CC(=O)O)O[C@H](CO)[C@@H]2O3)cc1	12.8	11.9
C[C@@H]1CN([C@@H](C)CO)C(=O)Cc2cc(NC(=O)Cc3cn(C)c4ccccc34)ccc2O[C@@H]1CN(C)Cc1ccc2c(c1)OCO2	-19.8	-20.3
COc1cccc(-c2ccc([C@H]3[C@H](CO)N4CCCCN(C(=O)c5ccc6c(c5)OCO6)C[C@@H]34)cc2)c1	-5.3	-13.1
CC(=O)N1[C@@H]2c3ccc(C4=CCCC4)c(=O)n3C[C@@H]2[C@@H](CO)[C@@H]1C(=O)Nc1ccccc1	-2.2	7.0
COc1ccc(NC(=O)N(C)C[C@H]2OCCCC[C@@H](C)Oc3ccc(NC(=O)Nc4c(C)noc4C)cc3C(=O)N([C@@H](C)CO)C[C@H]2C)cc1	13.4	-5.5
COc1ccccc1C(=O)Nc1ccc2c(c1)C(=O)N(C)[C@H]1CC[C@@H](CC(=O)NCc3ccc(Cl)c(Cl)c3)O[C@@H]1CO2	?	.
C[C@@H]1CN([C@H](C)CO)C(=O)c2cc(NC(=O)CCC(F)(F)F)ccc2O[C@H]1CN(C)Cc1ccc(C(F)(F)F)cc1	5.1	2.3
C[C@@H]1CN([C@@H](C)CO)C(=O)c2cccc(NC(=O)Nc3ccc4c(c3)OCO4)c2O[C@@H]1CN(C)S(=O)(=O)c1ccc(F)cc1	7.2	-0.1
CC(C)NC(=O)Nc1ccc2c(c1)C(=O)N([C@H](C)CO)C[C@@H](C)[C@H](CN(C)Cc1ccc(Cl)c(Cl)c1)OCCCC[C@@H](C)O2	?	.
C[C@H](CO)N1C[C@H](C)[C@@H](CN(C)C(=O)Nc2cccc3ccccc23)Oc2ccc(N(C)C)cc2C1=O	27.5	13.1
COc1ccc(CN(C)C[C@@H]2Oc3ccc(NC(=O)NC(C)C)cc3C(=O)N([C@H](C)CO)C[C@H]2C)cc1	11.3	4.7
CO[C@H]1CN(C)C(=O)c2ccc(NC(=O)Nc3cccc(F)c3)cc2OC[C@@H](C)N(C(=O)Nc2c(C)noc2C)C[C@@H]1C	14.4	5.9
Cc1noc(C)c1S(=O)(=O)Nc1ccc2c(c1)C(=O)N([C@H](C)CO)C[C@@H](C)[C@H](CN(C)CC1CCCCC1)OCCCC[C@H](C)O2	-24.5	-17.5
COc1ccc(S(=O)(=O)N2C[C@@H](O)COC[C@@H]3O[C@@H](CC(=O)N(C)C)CC[C@H]32)cc1	25.9	17.7
COc1ccccc1-c1ccc2c(c1)O[C@@H](CN(C)C)[C@H](C)CN([C@H](C)CO)S2(=O)=O	-4.4	-9.7
Cc1noc(C)c1S(=O)(=O)Nc1ccc2c(c1)C(=O)N([C@H](C)CO)C[C@@H](C)[C@@H](CN(C)C(=O)Nc1ccccc1)O2	3.5	8.5

3 structures out of the list, ordered by molar mass, ascending.
SMILES	Vaccinia stage	Vaccinia stage Venus
COc1ccc(S(=O)(=O)N2C[C@@H](O)COC[C@@H]3O[C@@H](CC(=O)N(C)C)CC[C@H]32)cc1	25.9	17.7
Cc1noc(C)c1S(=O)(=O)Nc1ccc2c(c1)C(=O)N([C@H](C)CO)C[C@@H](C)[C@@H](CN(C)C(=O)Nc1ccccc1)O2	3.5	8.5
C[C@@H]1CCCCO[C@H](CN(C)Cc2ccccc2)[C@@H](C)CN([C@H](C)CO)C(=O)c2cc(NC(=O)CCC(F)(F)F)ccc2O1	-8.1	-4.6

Later entries
SMILES	Vaccinia stage	Vaccinia stage Venus
COc1ccc2c3c([nH]c2c1)[C@@H](CO)N(C(=O)c1ccccc1)CC31CN(C(=O)c2cccc(F)c2)C1	-27.1	-19.4
CNC(=O)C[C@H]1CC[C@H]2[C@@H](COc3ccc(NC(=O)c4cc(F)cc(F)c4)cc3C(=O)N2C)O1	-13.7	-5.5
O=C(Nc1cc(F)ccc1F)N[C@H]1CC[C@@H](CCn2cc(C3CCCCC3)nn2)O[C@H]1CO	-22.2	-18.9
C[C@@H]1CN([C@@H](C)CO)C(=O)c2cc(C3=CCCC3)cnc2O[C@H]1CN(C)C	16.3	7.2
O=C([C@@H]1[C@@H](CO)[C@@H]2Cn3c(ccc(-c4cccnc4)c3=O)[C@H]1N2Cc1ccncc1)N1CCOCC1	3.4	-0.7
C[C@H]1CN([C@@H](C)CO)C(=O)c2cccc(NC(=O)C3CCCCC3)c2O[C@H]1CN(C)Cc1ccc(C(F)(F)F)cc1	-2.0	1.5
CO[C@H]1CN(C)C(=O)c2cc(NC(=O)Cc3ccccc3)ccc2OC[C@@H](C)N(C(C)=O)C[C@H]1C	-8.4	-3.1
COc1cccc(C#Cc2cnc3c(c2)C(=O)N([C@H](C)CO)C[C@@H](C)[C@@H](CN(C)C)O3)c1	-14.2	-5.6
COc1ccc2c3c([nH]c2c1)[C@H](CO)NCC31CCN(S(=O)(=O)c2ccccc2)CC1	-3.4	-1.5
COc1ccc(NC(=O)Nc2ccc3c(c2)[C@@H]2C[C@@H](CC(=O)O)O[C@H](CO)[C@@H]2O3)cc1	-3.5	-11.8
C[C@H](O)C#Cc1ccc2c(c1)O[C@H](CN(C)Cc1ccccn1)[C@@H](C)CN([C@@H](C)CO)S2(=O)=O	4.4	4.9
CCS(=O)(=O)N[C@H]1CC[C@H](CC(=O)Nc2ccc(-c3ccccc3)cc2)O[C@@H]1CO	3.2	7.6
C[C@H](CO)N1C[C@H](C)[C@H](CN(C)C(=O)Nc2ccccc2)Oc2c(NC(=O)c3ccncc3)cccc2C1=O	24.4	11.8
O=C(C[C@@H]1C[C@H]2c3cc(NC(=O)Nc4ccccc4)ccc3O[C@H]2[C@@H](CO)O1)NCC1CC1	0.8	-3.9
O=C(Cc1ccccc1)N1CC[C@@H]2[C@H](CO)Nc3ccc(Br)cc3[C@@H]21	14.8	4.7

Compounds from the list above that contain a Cl atom, in the order listed:
SMILES	Vaccinia stage	Vaccinia stage Venus
C[C@H]1CN([C@@H](C)CO)C(=O)CCCn2nncc2CO[C@@H]1CN(C)Cc1ccc(Cl)c(Cl)c1	-21.8	-34.2
O=C(C[C@H]1CC[C@H]2[C@@H](COC[C@@H](O)CN2S(=O)(=O)c2cccc(Cl)c2)O1)Nc1ccc(-c2ccccc2)cc1	?	.
O=C(NCC[C@H]1CC[C@@H](NC(=O)C2CCC2)[C@@H](CO)O1)Nc1ccc(Cl)cc1	10.0	10.9
O=C(C[C@@H]1CC[C@H]2[C@@H](COC[C@@H](O)CN2Cc2cccc(Cl)c2)O1)N1CCCCC1	?	.
COc1ccccc1C(=O)Nc1ccc2c(c1)C(=O)N(C)[C@H]1CC[C@@H](CC(=O)NCc3ccc(Cl)c(Cl)c3)O[C@@H]1CO2	?	.
CC(C)NC(=O)Nc1ccc2c(c1)C(=O)N([C@H](C)CO)C[C@@H](C)[C@H](CN(C)Cc1ccc(Cl)c(Cl)c1)OCCCC[C@@H](C)O2	?	.

Assay outcomes from PubChem.

An excerpt; count on the stated rates, not on these rows.
